LANA-H2A inh – blocks KSHV LANA binding to histone H2A/H2B; Q9QR71; cell-free LANA-H2A/H2B peptide, fluorescence polarization; inhibition, % (no concentration beside the values); 0.6% of 320,000 active; AID 2629; in the data active = inhibition mostly above about 10%, no sharp cut-off; inactive = mostly below about 6.7%;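 note: stock transfer was 7.5 nL into about 10 µL; 0% = median of vehicle wells and 100% = median of positive control wells; one replicate is shown; the record names a cut of 25% in any replicate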
Vif A3G – HIV-1 Vif–A3G interaction blockers – biochemical, TR-FRET, GST-Vif 1-94, biotin-A3G peptide, dose response retest, primary screen (AID 1117319) | TR-FRET GST-Vif / biotin-A3G peptide binding; higher % means a stronger effect; test concentration not given here; strong numbers were not always called active | 0.57% of 260,000 active | inhibition, %, or IC50 in µM where a hit was titrated;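 active = above the screen mean plus three standard deviations and confirmed in dose response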;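 note: Vif residues 1-94 fused to GST binding biotinylated APOBEC3G peptide 110-148; 0% = full assay without inhibitor and 100% = GST in place of GST-Vif; retest series ran down from 100 µM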
A1 inh – inhibitors of the anti-apoptotic protein A1, read as caspase activation; caspase activation, % (concentration not given with the values); 0.066% of 330,000 active; MEF A1-2A-BIM cells, Caspase-Glo 3/7 luminescence, 3 h; percent of clofoctol response, vehicle zero; AID 2462;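 active = over half of replicate activation scores above 10%, or exactly half above 10 with the replicate mean above 10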;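 note: wells of about 30 µL received 50 nL stock; many hits fall short of the cut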
E coli growth – inhibitors of Escherichia coli growth | AID 1053175 | OD600 absorbance (test concentration not listed) | OD600, 23 h; hits give low values | 0.21% of 330,000 active;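 active = OD600 absorbance below the run mean of sample wells minus 3.6 SD, in any replicate, cut at about 0.56 in these data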;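 note: stock transfer was 300 nL into about 60 µL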
UCH37 DUB inh – human UCH37 deubiquitinating enzyme inhibition. Q9Y5K5. purified proteasome/UCH37, Ub-AMC cleavage fluorescence. inhibition, % (no concentration beside the values). 0.33% of 330,000 active;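 active = mean of two replicates above 20%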;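 note: 0% = compound-free wells with enzyme and 100% = wells lacking proteasome; stock transfer was 100 nL into about 20 µL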
Target sequence (Q9Y5K5 whole entry, looked up): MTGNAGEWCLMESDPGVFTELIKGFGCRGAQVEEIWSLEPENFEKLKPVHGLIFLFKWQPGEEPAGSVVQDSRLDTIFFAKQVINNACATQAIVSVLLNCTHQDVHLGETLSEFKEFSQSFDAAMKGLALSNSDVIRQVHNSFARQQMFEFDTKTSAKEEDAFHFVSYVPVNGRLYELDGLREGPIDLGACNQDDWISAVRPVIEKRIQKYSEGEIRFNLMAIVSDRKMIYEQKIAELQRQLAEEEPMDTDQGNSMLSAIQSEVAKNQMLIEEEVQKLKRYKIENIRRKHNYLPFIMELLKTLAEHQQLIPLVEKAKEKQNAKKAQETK
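system = Proteasome-associated human UCH37 deubiquitinase | amount = 0.15 nM proteasome as dispensed | medium = pH 7.4 Tris-HCl (50 mM) with ovalbumin, ATP-MgCl2, DTT | incubation = 30 min preincubation with enzyme, 25 min cleavage at room temperature | detection = AMC fluorescence 355/460 nm | read-out basis = percent inhibition | controls = no-proteasome and no-compound wells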
HNF4A DNA FP – change in binding of human HNF4 alpha to DNA; HNF4a-FITC DNA binding, fluorescence polarization, 1 h; activity change, % at 10 µM; 0.3% of 360,000 active; in the data active = activity change above about 30%, passing the limit was not always enough;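 note: controls were the assay level and a saturating level of protein; the project sought stronger binding though the title names inhibitors; some compounds called inactive have numbers as strong as hits; positive values seem to mean higher polarization but the record does not say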
B2AR ag – agonists of human beta-2 adrenergic receptor inducing internalization. P07550. 0.43% of 340,000 active. response, % (no concentration beside the values). AID 504454. Am2.2-beta2AR cells, FAP receptor internalization, flow cytometry; reference of the scale not given here;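 active = response above a set limit, near 3 SD of response in nonfluorescent compounds, cut at about 42% in these data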;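 note: stock transfer was 100 nL into about 11 µL; a reference agonist was the positive control; negative values mostly stem from fluorescent compounds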
Target sequence (P07550 whole entry, looked up): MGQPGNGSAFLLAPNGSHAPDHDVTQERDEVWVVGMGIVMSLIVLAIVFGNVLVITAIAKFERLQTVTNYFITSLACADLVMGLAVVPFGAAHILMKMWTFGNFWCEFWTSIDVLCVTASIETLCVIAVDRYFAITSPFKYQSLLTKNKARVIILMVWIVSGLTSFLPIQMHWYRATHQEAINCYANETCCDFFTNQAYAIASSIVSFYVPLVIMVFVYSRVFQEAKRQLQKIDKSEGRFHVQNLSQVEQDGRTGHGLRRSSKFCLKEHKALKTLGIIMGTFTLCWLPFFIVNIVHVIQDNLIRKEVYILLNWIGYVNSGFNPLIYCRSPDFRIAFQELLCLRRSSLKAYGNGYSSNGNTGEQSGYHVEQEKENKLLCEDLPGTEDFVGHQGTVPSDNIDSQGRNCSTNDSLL
Numbers without * were called inactive; . = not tested or not shown; & = joins results of further samples.

SMILES	LANA-H2A inh	Vif A3G	A1 inh	E coli growth	UCH37 DUB inh	HNF4A DNA FP	B2AR ag
CC1(c2ccc(Cl)cc2)NC(=O)N(CC(=O)NC2CCCCC2)C1=O (stereo unspecified)	-4.9	-12%	0.2	0.67	4.1	5.1	-4
NC(=O)CSc1ccc(-c2ccc(F)cc2)nn1	-0.5	-1%	-0.7	0.66	3.0	3.0	2
COC(=O)c1ccc(-c2ccc(/C=N/N3C(=O)C4C5C=CC(C6CC56)C4C3=O)o2)cc1 (stereo unspecified)	-2.3	0%	-2.1	.	.	6.2	14
CCOc1ccc(C2NC(=S)NC3=C2CCc2ccccc23)cc1 (stereo unspecified)	2.2	.	-1.1	0.66	0.9	0.7	-8
O=C(COc1ccccc1)N1CCN(S(=O)(=O)c2ccc(Cl)cc2)CC1	-2.5	12%	-1.5	0.7	0.1	-4.1	8
COC(=O)C1CCN(C(=O)/C=C/c2ccc3c(c2)OCO3)CC1	3.5	.	-0.4	0.65	-14	0.3	3
CCOc1ccc(OCC(=O)Nc2ccccc2N2CCCC2)cc1	0.4	2%	0.2	0.67	3.7	3.1	-9
Cc1cccc2cc(CN(Cc3ccccc3)C(=S)NCCCN(C)C)c(=O)[nH]c12	-3.1	.	-0.5	0.71	1.1	-3.8	2
CC1(C)CC(NC(=O)c2ccccc2Cl)CC(C)(C)N1	-0.8	3%	1.4	0.69	-1.8	-3.0	-2
CNC(=S)N1CCN(c2nc(-c3cccc(OC)c3)cs2)CC1	-4.3	.	-0.4	0.69	-1.7	-1.0	8
CCc1ccccc1NC(=O)CN1CCN(C(=O)CNC(=O)c2ccc(N3CCCC3=O)cc2)CC1	1.3	-20%	0.0	0.71	0.8	0.1	-7
COc1cccc(C(c2nnnn2Cc2ccccc2)N2CCN(C3CCCC3)CC2)c1OC (stereo unspecified)	2.8	0%&-3%	-0.1	0.7	0.7	-2.6	3
O=C(C[C@H]1C[C@H](C(=O)N2CCOCC2)[C@@]2(CCC3CCCC3)c3[nH]c4ccc(Cl)cc4c3CCN2C1=O)NCCCn1ccnc1	.	3%	.	0.71	4.3	-6.6	1
COc1cc(NC(=O)CN2CCCCC2)c(C)cc1[N+](=O)[O-]	-2.3	.	-1.8	0.66	3.9	-0.5	-6
O=[N+]([O-])c1cc(CN2CCN(c3cccc(C(F)(F)F)c3)CC2)c2cccnc2c1O	5.6	8.7µM*	0.1	0.57	5.9	.	-5
O=C(CCS(=O)(=O)Cc1ccccc1)N1CCN(c2ccccc2)CC1	-0.2	4%	0.7	0.67	1.5	-0.7	5
CC(C)C[C@H](NC(=O)c1nc[nH]c1C(=O)N[C@@H](CCCCN)C(=O)OC(C)(C)C)C(=O)OC(C)(C)C	-1.4	.	0.0	.	-1.9	-1.7	16
COc1ccc(C(=O)Cc2ccc(F)cc2)c(OC)c1	-4.5	-3%	-3.3	0.71	-0.8	2.1	22
O=Cc1cn(-c2ccccc2)nc1-c1ccccc1	-0.8	-9%	0.3	0.67	4.1	-2.7	-4
COC(=O)CNC(=O)CCCCC(=O)NCC(=O)OC	-3.3	-2%	-1.1	0.73	3.3	1.1	1
COc1ccc(C(=O)N2CCC(n3c(C)nc4cc(F)ccc43)CC2)cc1	1.6	1%	0.6	0.67	4.1	1.4	0
COCCN(CCOC)C(=O)C1CCN(c2ccc(S(=O)(=O)N3CCOCC3)cc2[N+](=O)[O-])CC1	-10.0	2%	0.7	0.68	4.2	-2.9	10
COc1ccc(CN2C3CCCC2CC(NC(=O)Nc2ccccc2)C3)cc1 (stereo unspecified)	6.6	8%	0.0	0.73	6.3	-0.9	-12
C=CCc1cc(OC)ccc1OCCOCCC(C(=O)OCC)C(=O)OCC	7.6	0%	0.4	0.67	1.2	-3.7	-1
COc1ccc(/C=N/NC2=NS(=O)(=O)c3ccccc32)cc1	-4.7	-1%	-1.8	.	.	0.8	-7

2 records picked at random from the list so far:
SMILES	LANA-H2A inh	Vif A3G	A1 inh	E coli growth	UCH37 DUB inh	HNF4A DNA FP	B2AR ag
COc1ccc(C(=O)N2CCC(n3c(C)nc4cc(F)ccc43)CC2)cc1	1.6	1%	0.6	0.67	4.1	1.4	0
O=C(C[C@H]1C[C@H](C(=O)N2CCOCC2)[C@@]2(CCC3CCCC3)c3[nH]c4ccc(Cl)cc4c3CCN2C1=O)NCCCn1ccnc1	.	3%	.	0.71	4.3	-6.6	1

Some values from the results shown:
NC(=O)CSc1ccc(-c2ccc(F)cc2)nn1 in UCH37 DUB inh: 3.0
COc1ccc(C(=O)Cc2ccc(F)cc2)c(OC)c1 in A1 inh: -3.3
CC(C)C[C@H](NC(=O)c1nc[nH]c1C(=O)N[C@@H](CCCCN)C(=O)OC(C)(C)C)C(=O)OC(C)(C)C in HNF4A DNA FP: -1.7

Going on with the list.
SMILES	LANA-H2A inh	Vif A3G	A1 inh	E coli growth	UCH37 DUB inh	HNF4A DNA FP	B2AR ag
Cc1ccc(C(=O)Nc2cccc(C(=O)N/N=C/c3ccc(F)cc3)c2)cc1	0.6	2%	-0.6	.	.	-4.0	12
COc1ccc(/C=N/c2oc(-c3ccccc3)cc2C#N)cc1	3.1	14%	1.8	.	.	-2.0	-5
COCCCNC(=O)C1=CCN(S(=O)(=O)c2ccc(C)cc2)CC1	-1.8	-1%	1.4	0.68	5.1	1.4	2
CCOc1ccc(/C=C2/SC(=O)NC2=S)cc1	6.9	8%	-4.4	0.67	9.8	6.6	11
CC(=O)Nc1ccc(C(=O)CSc2nnnn2C(C)C)cc1	-6.6	9%	-0.7	0.66	2.0	1.1	-6
COc1cc(/C=C2\SC(c3ccc(C)cc3)=NC2=O)cc(OC)c1OC	-2.9	6%	-0.7	0.69	3.6	51*	4
CN(C)c1cccc(C(=O)OCCCC(=O)c2ccc(F)cc2)c1	-1.3	21%	0.4	0.7	-12	-4.3	8
CC(=O)c1cccc(NC(=S)NC2CCCCCCC2)c1	1.2	.	-1.4	0.66	1.7	4.7	-2
O=C1CCSc2ccc(Cl)cc2N1Cc1ccc(Cl)cc1	2.4	-7%	0.6	0.75	1.3	1.8	-4
Cc1cc(-c2ccccc2C(=O)NC2CCCCC2)on1	3.8	-3%	0.9	0.66	0.5	1.0	-2
COc1ccc(C(=O)NCC(=O)N/N=C/c2ccc([N+](=O)[O-])o2)cc1OC	-11	.	0.3	.	.	3.7	9
O=C(Nc1ccc(F)cc1F)C1CCN(c2ncnc3c2sc2cccc(F)c23)CC1	-1.6	.	-0.3	0.69	2.6	8.1	0
CCC(C)(C)C1CCC(=NNC(=S)Nc2cccnc2)CC1 (stereo unspecified)	-4.6	10%	-0.3	0.66	2.4	-1.3	6
COc1ccc(Nc2cc(C)nc3nc(C)nn23)cc1Cl	-3.3	-2%	0.6	0.7	0.8	0.7	-3
COc1ccc(C2SCC(C(=O)O)N2C(C)=O)cc1OC (stereo unspecified)	-3.7	-2%	-1.2	0.72	6.2	0.1	3
COc1ccc(C(CC(=O)O)NC(=O)COc2cc(C)ccc2C)cc1OC (stereo unspecified)	0.5	8%	-0.7	0.71	1.7	-1.1	5
CCN(N)C(=S)Nc1ccc(F)cc1	-4.3	.	-0.8	0.7	4.1	-2.7	-8
Cc1c(-c2cccs2)[n+](=O)c2c(n1[O-])CCCC2	-1.3	18%	0.0	0.72	2.7	-3.1	-1
C=CCOc1ccc(C(c2c(O)nc(SC)[nH]c2=O)c2c(O)nc(SC)[nH]c2=O)cc1	-3.2	.	0.0	0.69	3.9	-1.3	6
COCCN1CN(S(=O)(=O)c2cccc(Cl)c2)c2nc3ccccc3nc21	10	.	0.9	0.7	-32	8.2	-7
CC(=O)NCCc1c[nH]c2ccc(O)cc12	1.3	.	-0.3	0.66	0.4	-1.5	6
Nc1ncnc(Nc2ccc(S(N)(=O)=O)cc2)n1	7.0	-12%	0.0	0.67	-1.7	-3.6	-118
CSc1nc(-c2ccco2)nn1S(=O)(=O)c1ccc(C)cc1	0.3	12%	1.6	0.8	3.6	0.5	1
C=CCn1c(=O)[nH]c2nc3cc(N=CN(C)C)c(C)cc3nc2c1=O	11	18%	1.0	0.66	-3.3	-28	7
COCc1cccc(NC(=O)CCc2ccccc2)c1	-0.9	-1%	4.1	0.7	3.3	-4.6	-6
Other structures.
SMILES	LANA-H2A inh	Vif A3G	A1 inh	E coli growth	UCH37 DUB inh	HNF4A DNA FP	B2AR ag
COC(=O)c1cc(S(=O)(=O)NC2CCC(C)CC2)cn1C (stereo unspecified)	0.5	1%	-0.7	0.68	3.9	0.1	3
COc1ccccc1CN1[C@@H](CC(C)=O)c2cc(C(F)(F)F)ccc2S1(=O)=O	0.8	.	0.6	.	1.2	0.8	1
COc1ccc(C(=O)CSc2nnc(-c3ccc(S(=O)(=O)N4CCOCC4)cc3)o2)cc1	-9.8	-7%	0.1	0.76	2.2	-3.5	6
CCOC(=O)C1(CCOc2ccccc2)CCN(Cc2cccn2-c2ncccn2)CC1	3.8	2%	-0.3	0.69	1.6	2.0	7
CCCCN(Cc1ccco1)C(=O)Cn1ncc2c(=O)oc3ccc(C)cc3c21	-6.0	4%	0.5	0.8	5.4	2.7	-23
CCCOc1ccc(/C=N/NC(=S)Nc2ccccc2[N+](=O)[O-])c(O)c1	2.8	5%	1.0	.	.	.	.
COc1cc2sc3ccc(C#Cc4ccc(N)cc4)cc3c(=O)c2cc1OC	-4.8	.	4.2	0.7	-0.3	4.4	3
CCS(=O)(=O)NC(C)C(c1cccs1)N1CCN(C)CC1 (stereo unspecified)	2.1	1%	0.9	0.66	2.7	0.1	-5
O=C1OCCN/C1=C\C(=O)c1ccccc1	-3.1	-11%	0.6	0.66	7.5	2.2	-5
O=C(CSc1nnc(-c2ccccc2F)n1C1CC1)NC(=O)c1cccc([N+](=O)[O-])c1	.	10%	0.2	0.7	1.3	0.8	-1
NC(=O)c1ccc(NC(=O)c2ccc3c(c2)OCO3)cc1	-3.6	11%	-5.0	0.66	-0.8	4.3	4
Nc1c(Cl)cc(NC(=O)c2ccccc2C(=O)O)cc1Br	-4.3	9%	-0.3	0.66	2.6	0.2	-13
CCOc1ccc(CN(C)CC(=O)Nc2cccc(C)c2)cc1OC	2.6	0%	-0.2	0.72	2.7	-0.9	-2
Cc1cc(C)cc(Nc2nc3c(S(=O)(=O)c4ccccc4)nnn3c3ccccc23)c1	1.8	-1%	-1.3	0.72	-81	0.4	8
Cc1ccc(/C=C/C(=O)OCC(=O)Nc2cccc(S(=O)(=O)N(C)C)c2)o1	2.9	13%	-0.4	0.66	2.8	-0.8	1
CC(C)C[C@H]1CN=C(N(C)C)N1CCCCc1ccccc1	-4.6	.	-0.3	.	4.6	-4.3	-2
COc1ccc(-c2nnc(-c3cc4ccccc4oc3=O)o2)cc1	-3.2	-4%	-0.7	0.67	-248	-2.8	-12
CCOc1c(Br)cc(/C=C2\C(=O)N(CCC#N)N=C2C)cc1OC	5.1	15%	0.0	0.73	2.4	0.3	4
Cc1cc(C)n(C(=O)/C=C/c2cccs2)n1	4.8	25%	-0.6	0.67	6.5	-1.0	-1
O=C(CSCc1cc(=O)n2nc(C3CC3)sc2n1)Nc1ccccc1Cl	7.1	-2%	-1.1	0.67	0.4	3.8	2
CCNC(=O)C1CC(=O)N(CCCc2ccccc2)C(=Nc2ccccc2)S1 (stereo unspecified)	2.0	-5%	0.5	0.7	5.3	-4.1	-1
Cc1cc(C)cc(N(CC(=O)N2CCC(C)CC2)S(=O)(=O)c2ccccc2)c1	-1.5	0%	-0.3	0.69	0.1	0.5	-4
CN(C)c1ccc(NC(=O)CSCc2nc3c(nnn3Cc3ccc(F)cc3)c(=O)[nH]2)cc1	.	18%	.	0.69	5.6	1.1	-5
CCc1ccc(N2Cc3ccccc3C2)cc1	6.7	.	-2.4	0.69	2.0	5.6	-1
COc1ccc(NC(C)=O)cc1S(=O)(=O)Nc1ccc(OCc2ccccc2)cc1	-1.7	.	-0.2	0.71	-1.8	3.0	5

Compound activity as filed in PubChem.
